gsp ag: qHTS for Agonist of gsp, the Etiologic Mutation Responsible for Fibrous Dysplasia/McCune-Albright Syndrome: qHTS. gsp mutant cells, cAMP HTRF, 30 min; control for the full effect not named in the record. Potency, µM (top dose mostly 76.9 µM), inactives show at the top dose activation (cAMP increase), usual class: activators. 340,000 tested, 0.13% active. AID 624287, 2012; active = well fitted activation curve with a large enough effect; inconclusive = small, poorly fitted or top-dose-only effect, or another doubt; inactive = no such curve, though single readings can be large or run the other way; cell line not stated here;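 note: phosphodiesterase inhibitor Ro 20-1724 added with compounds to block cAMP breakdown; potency is the fitted concentration of half-maximal effect; nearly all actives have a fitted effect of over 60% in size; about a fifth of the inactives were tested at one dose only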
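Cells stably selected in G418 were plated at 2000/well, grown 16-24 hr, then given compounds in DMSO with the PDE inhibitor […] (300 uM solution added) for 30 min at 37C; cAMP was read by HTRF.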
gsp antagonist: qHTS for Antagonists of gsp, the Etiologic Mutation Responsible for Fibrous Dysplasia/McCune-Albright Syndrome: qHTS; Potency, µM (top dose mostly 76.9 µM), inactives show at the top dose activity change, negative = inhibition, hits mostly inhibitors; gsp-mutant cells, cAMP HTRF, 30 min; control for the full effect not named in the record; 340,000 tested, 0.4% active; active = falling curve of any shape with a large fitted effect; inconclusive = falling curve, mostly with a smaller effect; inactive = flat or rising curve; cell line not stated here;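 note: intracellular cAMP measured with PDE inhibitor Ro 20-1724 present during compound exposure; potency is the fitted concentration of half-maximal effect; % is set by controls: 0 for no effect and ±100 for the full control effect; nearly all actives have a fitted effect of over 65% in size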
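HTRF cAMP read-out (cAMP-d2 plus anti-cAMP antibody-K in lysis buffer, 30 min RT). Before lysis, cells are exposed to compounds with […] for 30 min at 37C in DPBS containing Ca/Mg, BSA and Tween 20.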
Menin MLL FP FL: qHTS Assay for Inhibitors Targeting the Menin-MLL Interaction in MLL Related Leukemias: Competition With Fluorescein Labeled MLL-derived Peptide. FP activity change, % at 61.4 µM. Fluorescence polarization, fluorescein-MLL peptide displacement from menin. 290,000 tested, under 10 active. AID 1766, 2009; inconclusive = falling polarisation curve, or a change in total fluorescence; inactive = total fluorescence flat and polarisation flat or rising; no compound was filed as active; the % refers to the polarisation; negative = inhibition;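 note: % of control where 0% means no effect; inhibitors lower the polarisation; unlabelled MLL peptide was the positive control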
TRPML1 blocker: qHTS for Inhibitors of the Human Mucolipin Transient Receptor Potential 1 (TRPML1). Mucolipin-1 (Homo sapiens), Q9GZU1. TRPML1-inducible cells, Ca2+ dye fluorescence, FDSS; stronger effect = lower value; inhibition of EC80 agonist-evoked calcium signal. activity change, negative = inhibition, % (concentration not given with the values). 390,000 tested, 0.02% active. AID 624415, 2012; in the data active means activity change below about -50%; inconclusive means about -30% to -50%; inactive means above about -30%;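 note: stimulus is agonist 54-4 at its EC80 concentration; % is set by controls: 0 for no effect and ±100 for the full control effect; compound concentration not given in the record; the text of the record puts the active cut at -80%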
Target sequence (Q9GZU1 whole entry, looked up): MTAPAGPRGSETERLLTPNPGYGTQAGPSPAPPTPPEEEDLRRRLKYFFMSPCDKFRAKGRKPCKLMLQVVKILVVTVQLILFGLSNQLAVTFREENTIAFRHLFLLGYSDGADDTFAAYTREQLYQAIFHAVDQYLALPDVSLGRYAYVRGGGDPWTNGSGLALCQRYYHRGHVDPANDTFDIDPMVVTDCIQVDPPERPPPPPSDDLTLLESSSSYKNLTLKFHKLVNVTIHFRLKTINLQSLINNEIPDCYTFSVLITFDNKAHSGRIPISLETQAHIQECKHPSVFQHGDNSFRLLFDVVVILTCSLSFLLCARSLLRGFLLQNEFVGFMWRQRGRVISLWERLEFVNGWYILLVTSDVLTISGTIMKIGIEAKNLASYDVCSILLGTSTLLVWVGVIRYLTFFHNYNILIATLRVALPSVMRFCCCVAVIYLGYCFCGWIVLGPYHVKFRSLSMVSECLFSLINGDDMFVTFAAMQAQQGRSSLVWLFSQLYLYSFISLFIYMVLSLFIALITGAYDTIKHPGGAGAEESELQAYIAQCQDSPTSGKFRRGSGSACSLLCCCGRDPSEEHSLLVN
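Tet-induced TRPML1-DL cells loaded with Ca8 no-wash calcium dye were read kinetically on FDSS. Compound addition was followed by EC80 agonist 54-4 (4 uM final); inhibition was read over 110 s.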
Sfp PPTase inh: qHTS Assay for Inhibitors of Bacillus subtilis Sfp phosphopantetheinyl transferase (PPTase); 310,000 tested, 3.5% active; Potency, µM, for the others: max response, negative = inhibition, actives largely listed as inhibitors; Biochemical Sfp PPTase activity, qHTS; 4'-phosphopantetheinyl transferase ffp (Bacillus subtilis), Q9F4F7; active = well fitted inhibition curve with a large enough effect; inconclusive = small, poorly fitted or top-dose-only effect, or another doubt; inactive = no such curve, though single readings can be large or run the other way;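 note: the enzyme is Sfp with the accession as filed and its product quenches rhodamine fluorescence; potency is the fitted concentration of half-maximal effect; 0% = enzyme reaction without inhibitor and -100% = no enzyme wells; top concentration of the series not given in the record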
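Buffer: 50 mM Hepes-Na pH 7.6, 10 mM MgCl2, 0.01% Nonidet P-40, 0.01% BSA. Enzyme 15 nM, pre-exposed to compound 15 min; substrates then added and fluorescence change tracked over 30 min.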
ClpP mod: qHTS Assay for Activators of ClpP; AID 651965, 2013; ATP-dependent Clp protease proteolytic subunit (Bacillus subtilis (strain 168)), P80244; purified B. subtilis ClpP, FRET peptide cleavage, 20 min; 340,000 tested, 1.9% active; Potency, µM (doses to about 57.5 µM), inactives show at the top dose activity change, negative = active; active = well fitted falling curve with a large enough effect; inconclusive = small, poorly fitted or top-dose-only effect; inactive = no such curve, though single readings can be large or run the other way; note: potency is the fitted concentration of half-maximal effect; the source files actives as falling curves though it sought activators and does not explain the sign; nearly all actives have a fitted effect of over 65% in size; many hits overshoot -100%
Target sequence (P80244 whole entry, looked up): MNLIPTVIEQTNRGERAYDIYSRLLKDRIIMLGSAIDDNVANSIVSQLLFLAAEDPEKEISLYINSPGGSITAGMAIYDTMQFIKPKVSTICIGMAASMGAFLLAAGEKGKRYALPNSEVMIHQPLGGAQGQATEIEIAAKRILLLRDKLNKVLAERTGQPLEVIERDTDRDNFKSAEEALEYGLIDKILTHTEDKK
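ClpP 10 microg/mL final, pH 8 Tris/KCl buffer with BSA, glycerol, Tween-20; compound pinned in; FRET-FV substrate; RT 20 min; Ex320/Em430; ΔFRET vs ADEP 5.8 microM, DMSO, no enzyme.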
TRPV1 PAM: HTS Assay for Compounds that Act as Potentiators of the Vanilloid Receptor 1 | Transient receptor potential cation channel subfamily V member 1 (Homo sapiens), Q8NER1 | TRPV1-expressing cells, Fluo-8 calcium influx, capsaicin EC20 potentiation; host cell line not named in the record; control for the full effect not named in the record | potentiation, % at 8.33 µM | 320,000 tested, 0.02% active | AID 540277, 2011; active means potentiation above 80%; inconclusive means 30% to 80%; inactive means below 30%; note: 0% is about no effect
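TRPV1-expressing cells were cultured overnight at 35.5C and loaded with Fluo-8 calcium dye for 40 to 90 min at room temperature. After a 10 s baseline, compound was added and calcium influx was read kinetically for 3 min (ex 480/em 520 nm).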
The depositor's hits bear a star; ? = inconclusive; nt = no result given; & = joins results of further samples; [ ] = remark or other dose.

SMILES	gsp ag	gsp antagonist	Menin MLL FP FL	TRPML1 blocker	Sfp PPTase inh	ClpP mod	TRPV1 PAM
CCN1CCN(c2cc(C)c3cc(NC(=S)NCCCN4CCc5ccccc5C4)ccc3n2)CC1	14%[15.4 µM]	8%	-1.1	3	4%	nt	-9
Cc1cc(NS(=O)(=O)c2ccc(NC(=O)C(C)Oc3cccc(C)c3C)cc2)nc(C)n1 (stereo not given)	5%	-16%	0.7	7	9%	-1.8%	2
CCOC(=O)c1ccc(S(=O)(=O)N2CCNCC2)cc1	-46%[inhibitor]	13%	-2.1	-10	9%	-2.2%	-6
O=C(CSCc1ccc(F)cc1)NCc1ccc2c(c1)OCO2	-29%	4%	-1.2	-8	8%	nt	-14
CN1C(=O)/C(=C/c2cn(CC(=O)N3CCCCC3)c3ccccc23)c2ccccc21	nt	nt	2.3	nt	2%	nt	21
Cc1ccc(C(=O)N/C(=C\c2ccc(F)cc2)C(=O)NCCCn2ccnc2)cc1	-81%[inhibitor]	0%	nt	18	2%	nt	-2
Cc1cccc(NC(=O)CSc2c3c(nc4ccccc24)CCC3)n1	?	-3%	6.2	10	12%	nt	3
COc1ccc(NC(=O)NCCc2cccc(Cl)c2)cc1OC	18%	10%	0.6	2	15%	0.1%	-11
CCCCCCN1C=CC=C/C1=C/C=C(C#N)C#N	-16%	-24%	?	19	?	1.7%	3
O=C(O)c1cc([N+](=O)[O-])ccc1Oc1ccccc1	29%	-1%	nt	-11	nt	-2.8%	nt
Cc1occc1C(=O)Nc1nnc(-c2cccs2)s1	?	3%	8.1	-2	16%	nt	5
O=C1c2ccccc2C(=O)N1OCCOCCOCCON1C(=O)c2ccccc2C1=O	0%	-15%	-0.1	-11	6%	1.9%	3
CCOC(=O)c1cnc(-n2cc(C)cn2)nc1Nc1ccccc1OCC	-12%	8%	-0.1	0	0%	0.8%	-13
COc1cc(C(=O)N2CCN(S(=O)(=O)c3cccs3)CC2)cc(OC)c1C	-3%	-9%	0.7	11	-54%	1.1%	-5
COc1cccc(/C=C/C(=O)OCC(=O)N(C)CC(=O)Nc2ccccc2Cl)c1OC	-36%[inhibitor]	1%	nt	5	nt	-1.4%	16
CCOC(=O)N1[C@@H]2C=C(C)[C@@H]2[C@@H]2[C@@H](C)C(=O)N21	-3%[15.4 µM]	17%	0.2	17	8%	-1.3%	-41
CN(C)CCCOc1ccc(C(C)(C)c2ccccc2)cc1	0%	17%	-0.3	18	-28%	-0.6%	8
Cc1c(Br)c(C(=O)NCc2cc3cc(Cl)ccc3[nH]2)nn1C	13%	4%	0.0	68	-12%	2.1%	-23
COc1ccc(NC2=CC(=O)CC(C)(C)C2)cc1	15%	-4%	4.3	-15	3%	0.4%	6
Cc1onc(C(=O)N2CCN(Cc3ccccc3)CC2)c1[N+](=O)[O-]	-45%[inhibitor]	?	-2.1	4	3%	0.7%	4
CC1(C)C(=O)N(c2ccccc2)C(=O)c2ccccc21	?	2%	nt	-13	nt	-4.1%	nt
O=C1CCN(S(=O)(=O)c2ccc(Cl)cc2)CC1	-75%[inhibitor]	-9%	-2.9	-6	16%	0.5%	-4
COc1ccc(/C=C/CN2CCCC(C(=O)c3cc(F)ccc3F)C2)cc1 (stereo not given)	3%[15.4 µM]	11%	-0.6	-17	-1%	nt	-9
N#C/C(C(=O)Oc1ccccc1)=C1\C=CC=CN1	24%	10%	1.5	-4	2%	-0.4%	-9
O=[N+]([O-])c1ccc2cn(C3OC(CO)C(O)C3O)nc2c1 (stereo not given)	-6%	nt	nt	-25	nt	-0.8%	nt
NC(=O)C1CCN(C(=O)CCc2ccsc2)CC1	4%	7%	-3.0	-21	3%	nt	23
C=C[C@@H](C)N(Cc1ccc(OC)cc1)S(=O)(=O)N(Cc1ccccc1)[C@H](C=C)C(C)C	19%	-6%	nt	-2	nt	-0.2%&-2.4%	-1
O=C(Nc1ccc(C(=O)NCc2ccccc2Cl)cc1)C1=CSCCO1	-7%	2%	0.3	-4	1%	-2.4%	-7
CN(C)S(=O)(=O)c1ccc(NC(=O)N2CCN(c3ccccc3Cl)CC2)cc1	3%	-27%	-0.2	-16	2%	-2.7%	-25
Cc1cccc(Cn2c(N3CCc4ccccc4C3)nc3c2c(=O)[nH]c(=O)n3C)c1	-38%	-6%	-0.5	3	8%	3.6%	-6
Oc1ccccc1CNCCCN1CCOCC1	-5%[15.4 µM]	11%	1.0	-6	-14%	-0.1%	-16
Oc1ccc(/C=N/NC(=S)N2CCOCC2)cc1	4%[15.4 µM]	18%	9.6	15	-1%	nt	0
O=C(Cc1cccs1)Nc1cccc(C(=O)Nc2ccco2)c1	-28%	2%	1.1	-10	7%	0.8%	-2
CCCn1c(N2CCOCC2)nc2c1c(=O)[nH]c(=O)n2C	-37%[inhibitor]	-12%	0.8	19	20%	-0.3%	2
CC(C)C(NS(=O)(=O)c1cccc2nsnc12)C(=O)Nc1nc2ccc(Cl)cc2s1 (stereo not given)	-24%	-12%	0.5	13	23%	0.2%	12
COc1ccc(OC)c(C2N(c3ccccn3)C(=O)C3CCCN32)c1 (stereo not given)	2%	20%	4.5	-7	9%	-2.1%	7
CCC/C=C(\CCC)C(NS(=O)(=O)c1ccc(C(F)(F)F)cc1)c1ccccc1 (stereo not given)	nt	nt	4.4&-8.2	nt	9%&26%	nt	7
CCCNS(=O)(=O)c1cc2c3c(c1)CCN3C(=O)CC2	17%	2%	4.0	22	18%	-1.8%	?
COc1cc(NC2c3ccccc3C(=O)N2c2cc(C)ccn2)cc(OC)c1OC (stereo not given)	-52%	8%	-1.4	-8	-5%	0.2%	?
Clc1ccc(C2CC(c3ccco3)n3ncnc3N2)cc1Cl (stereo not given)	-3%	-12%	2.0	-3	5%	-0.3%	5
CCn1c(=O)c(=O)n(CC)c2cc(S(=O)(=O)N3CCc4ccccc43)ccc21	16%	11%	3.1	28	6%	-0.2%	0
COc1cccc(CN2CC(C(=O)NCC3CCOCC3)CCC2=O)c1 (stereo not given)	?	18%	0.8	-3	12%	-0.3%	-5
COc1ccc(OC)c(CNS(=O)(=O)c2c(C)nc3scc(C)n3c2=O)c1	16%	1%	5.4	-7	30%	-0.9%	-9
O=C1CCN(Cc2ccco2)C(=S)N1	29%	8%	nt	1	nt	nt	nt
CS(=O)(=O)Nc1cccc2cccnc12	7%	2%[15.4 µM]	-1.3	-9	?	-0.7%	24

Given as a markdown table: part of the list above.
| canonical_smiles | gsp ag | gsp antagonist | Menin MLL FP FL | TRPML1 blocker | Sfp PPTase inh | ClpP mod | TRPV1 PAM |
| --- | --- | --- | --- | --- | --- | --- | --- |
| COc1cc(NC2c3ccccc3C(=O)N2c2cc(C)ccn2)cc(OC)c1OC (stereo not given) | -52% | 8% | -1.4 | -8 | -5% | 0.2% | ? |
| COc1cccc(CN2CC(C(=O)NCC3CCOCC3)CCC2=O)c1 (stereo not given) | ? | 18% | 0.8 | -3 | 12% | -0.3% | -5 |

Remaining list, next part:
SMILES	gsp ag	gsp antagonist	Menin MLL FP FL	TRPML1 blocker	Sfp PPTase inh	ClpP mod	TRPV1 PAM
CCCn1cnc2c(Sc3c([N+](=O)[O-])ncn3C)nc(N)nc21	15%	-4%	nt	14	nt	?	nt
O=C(COc1coc(CN2CCN(c3ccccc3F)CC2)cc1=O)Nc1ccccc1	-6%[15.4 µM]	6%	nt	-3	nt	nt	-4
Cc1csc(CN(C)C(=O)C2CCC(=O)N(CCN(C)C)C2)n1 (stereo not given)	-2%	5%	nt	4	7%	0.1%	-2
CSCC(=O)Nc1cc(C)on1	-8%[15.4 µM]	12%	0.6	4	4%	nt	4
O=C(NNC(=O)c1ccccc1Cl)c1cccnc1	-6%[15.4 µM]	13%	0.5	-9	9%	nt	-3
CCc1c(C)sc(NC(=O)/C=C/C(=O)O)c1C(N)=O	-101%[inhibitor]	13%	12	20	-81%	-3.4%	0
FC(F)(F)c1cc(-c2cccs2)nc(N2CCOCC2)n1	?	-17%	-0.7	12	9%	-6.6%	-7
CC(=O)c1ccsc1B(O)O	nt	nt	-0.6	nt	24%	0.0%	nt
Cc1nc(OCC(=O)c2ccc(Cl)cc2)c(C#N)c2c1COC(C)(C)C2	-6%	-11%	2.9	24	-7%	-0.2%	-3
Fc1ccc(NC(=S)NN=Cc2ccccc2Cl)cc1	-6%	-7%	nt	1	nt	nt	nt
O=C(CSc1oc(-c2ccc(F)cc2)nc1S(=O)(=O)c1ccc(F)cc1)NCC1CCCO1 (stereo not given)	-20%	17%	-0.5	-5	1%	0.0%	5
Cc1ccc(NC(=O)Cn2c(=O)oc3ccccc32)cc1Cl	9%[15.4 µM]	-2%	7.5	12&-19	-2%	-4.5%&-1.3%	-5
COc1ccc(-n2cnnc2SC(C)C(=O)Nc2cccc([N+](=O)[O-])c2)cc1 (stereo not given)	-20%	-1%	0.5	14	14%	-0.8%	5
FC(F)(F)c1cc(C(F)(F)F)c2ccc(N/N=C/c3ccccc3)nc2n1	-20%	5%[15.4 µM]	3.9	-6	9%	-0.9%	3
COc1cccc(C(=O)Nc2cnc(NC(=O)c3ccco3)cc2C)c1	14%	14%	3.4	-3	3%	-0.6%	-30
Clc1ccc(NCc2cccnc2)c(Cl)c1	-8%[15.4 µM]	4%	-1.9	-19	-3%	0.2%	28
CCOCCCn1c(SCC(=O)Nc2ccc(OC)cc2)nc2ccccc2c1=O	8%	-6%	1.2	41	50µM*	nt	12

High-throughput results deposited in PubChem by National Center for Advancing Translational Sciences (NCATS).

An unsorted share of the library. About 4.9% of those tested had a hit in this group.
